RecA intein inh = Mtb RecA intein splicing inhibition | hit rate 0.75% among 290,000 | inhibition, %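 (about 9 µM by stock and volumes)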 | cell-free RecA intein splicing, fluorescence | P9WHJ3 | AID 2221; in the data active means inhibition above about 30%; inconclusive means no clear call, values can overlap the other calls;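 further: 0% = vehicle wells and 100% = reference inhibitor control wells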
Target sequence (P9WHJ3 whole entry, looked up): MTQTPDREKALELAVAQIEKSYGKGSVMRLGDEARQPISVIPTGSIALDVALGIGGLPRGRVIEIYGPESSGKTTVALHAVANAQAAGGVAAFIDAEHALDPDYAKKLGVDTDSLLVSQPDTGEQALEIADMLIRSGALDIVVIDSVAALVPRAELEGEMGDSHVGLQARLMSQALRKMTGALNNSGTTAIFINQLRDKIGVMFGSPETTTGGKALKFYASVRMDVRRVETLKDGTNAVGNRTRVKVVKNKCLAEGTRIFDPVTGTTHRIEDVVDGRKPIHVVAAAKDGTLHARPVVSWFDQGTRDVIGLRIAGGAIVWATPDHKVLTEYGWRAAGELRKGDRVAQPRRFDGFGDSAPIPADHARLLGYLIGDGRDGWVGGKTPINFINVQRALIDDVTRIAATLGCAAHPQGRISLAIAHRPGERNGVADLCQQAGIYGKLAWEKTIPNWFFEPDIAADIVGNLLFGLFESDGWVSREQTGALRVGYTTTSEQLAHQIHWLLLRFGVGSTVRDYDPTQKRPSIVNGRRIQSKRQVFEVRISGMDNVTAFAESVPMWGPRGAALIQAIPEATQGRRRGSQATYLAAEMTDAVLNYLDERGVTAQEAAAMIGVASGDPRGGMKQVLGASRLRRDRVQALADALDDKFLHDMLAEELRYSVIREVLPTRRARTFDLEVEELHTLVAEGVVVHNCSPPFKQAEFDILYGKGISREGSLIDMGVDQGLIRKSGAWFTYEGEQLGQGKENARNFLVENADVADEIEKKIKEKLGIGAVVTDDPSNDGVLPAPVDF
Mtb bLac sens = beta-lactam sensitization of Mtb H37Rv; M. tuberculosis H37Rv growth with meropenem, percent inhibition; hits of this screen are not shown here; inhibition, % at 25 µM; hit rate 0.27% among 330,000;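 active means about 74% or more and at least 40 points above the plate without the antibiotic, then above 30% in a dose series; inconclusive means first-round hits that could not be retested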;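 further: growth measured after seven days incubation then overnight dye step; 0% = bacteria only wells and 100% = bacteria with antibiotic; twin plates without the antibiotic show which effects depend on it; some results filed as inactive read as strong as hits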
Arbovirus inh = arbovirus infection inhibition | arbovirus infection cell-based antiviral screen | inhibition, % at 10 µM | hit rate 0.37% among 200,000 | AID 1251;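 active means inhibition from about 30%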;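 further: bluetongue infection of BSR cells; cell survival read as ATP light after 72 h; 0% = infected wells without compound and 100% = uninfected wells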
Mtb H37Rv = M. tuberculosis H37Rv growth inhibitors, H37Rv strain (AID 1626); inhibition, % at 10 µM, or IC50 in µM where a hit was titrated; hit rate 0.95% among 220,000; M. tuberculosis H37Rv growth inhibition; higher % means a stronger effect;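 active means confirmed in a dose series; inconclusive means inhibition above 80% but not taken into the dose series; inactive means below 80% or under 30% at every dose of the series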;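 further: bacteria incubated seven days before Alamar blue readout; 0% = bacteria only wells and 100% = bacteria with antibiotic wells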
YopH inh = YopH (Yersinia) phosphatase inhibition | fluorescence Ex485/Em525 | inhibition, %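 (about 10 µM by stock and volumes)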 | hit rate 0.16% among 140,000;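 active means inhibition of 50% or more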;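 further: controls were vehicle for no effect and minimum signal wells for full effect; inactives centre near -20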
Arbovirus inh repeat = recorded beside Arbovirus inh, whose call it bears; inhibition, %; measured here: 10K subset replicate screen; many hits read low in the repeat;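 first of two repeat runs on a subset; 0% = infected and 100% = uninfected wells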
* marks the source's active call; other numbers are inactive results; ? = inconclusive; · = not tested or not shown. These rows are one share of the data. The share of hits here may be higher or lower than overall.

SMILES	RecA intein inh	Mtb bLac sens	Arbovirus inh	Mtb H37Rv	YopH inh	others
Cc1nc2ccc(Cl)cc2c(-c2ccccc2F)c1CC(=O)O	0.7	9	2	-5%	-13
O=C(Cc1cccc2ccccc12)Nc1ccc2c(c1)C(=O)NC2=O	-0.8	-3	-1	-3%	·
C=CCN(c1ccc(C(N)=O)cc1)S(C)(=O)=O	·	-10	-2	0%	-17
Cn1c(Cn2c(=O)sc3ccccc32)nnc1SCC(N)=O	0.3	1	2	2%	-27	Arbovirus inh repeat=-3
C=CCN=C(NC#N)SCc1ccccc1Cl	·	-5	0	3%	-1
COc1nnc(-c2ccc(C)c(S(=O)(=O)NC(C)C)c2)c2ccccc12	17	3	·	·	·
Cc1ccc2nc(-c3ccncc3)cc(C(=O)NCc3ccccc3F)c2c1	2.1	65	·	·	·
Cc1ccc(C)c(-c2nnc(NC(=O)C3=COCCO3)o2)c1	1.2	87	·	·	·
COc1cccc(NC(=O)C2CCCN(S(=O)(=O)c3cccc4nsnc34)C2)c1 (stereo not given)	-0.7	-6	6	3%	1
COc1ccc(CC(=O)NCC2(c3ccc(OC)c(OC)c3)CCCC2)cc1	-1.0	4	2	-9%	·

The final two entries of the part before lead into the next:
SMILES	RecA intein inh	Mtb bLac sens	Arbovirus inh	Mtb H37Rv	YopH inh	others
COc1cccc(NC(=O)C2CCCN(S(=O)(=O)c3cccc4nsnc34)C2)c1 (stereo not given)	-0.7	-6	6	3%	1
COc1ccc(CC(=O)NCC2(c3ccc(OC)c(OC)c3)CCCC2)cc1	-1.0	4	2	-9%	·
COc1ccccc1NS(=O)(=O)c1cc(C)ccc1C	2.5	4	2	-7%	-16
O=C(O)c1nn(Cc2nc3ccccc3o2)c(=O)c2ccccc12	2.3	0	·	·	·
COc1cc(OC)c(OC)cc1/C=N/n1c(COc2ccccc2)n[nH]c1=S	-1.0	?	·	·	·
CCOc1ccccc1NC(=O)CCN1CCN(S(=O)(=O)c2ccc(Br)cc2)CC1	-0.5	2	-2	-2%	-35
COc1cc(C2C(C(=O)c3cccs3)=C(O)C(=O)N2Cc2ccco2)cc(OC)c1OC (stereo not given)	-1.1	-11	9	·	-35	Arbovirus inh repeat=5
CSc1nc(-c2ccccc2)nc(NC(C)=O)c1C(C)=O	1.1	5	1	8%	·
CCOC(=O)/C(C(C)=O)=C1/OC(=O)c2ccccc21	-0.6	2	0	2%	-6
COc1cc(C(=O)NC2CC3CCCC(C2)N3Cc2ccccc2)cc(OC)c1OC (stereo not given)	2.3	-28	·	·	·
COc1ccc(NC(=O)c2ccco2)cc1NC(=O)c1ccccc1[N+](=O)[O-]	-2.0	-1	·	·	·
COc1ccc(/C=N/NC(=O)c2ccn[nH]2)cc1COc1ccc([N+](=O)[O-])c(C)c1	-2.5	22	·	0%	·
COC(=O)[C@@]1(Cc2ccc(F)cc2)[C@H]2c3cc(C(=O)N4CCCC4)n(CCc4ccccn4)c3C[C@H]2CN1C(=O)c1ccccc1	·	-3	-8	2%	9
COc1ccc(-n2nnnc2/C=C/Nc2cc(C(F)(F)F)ccc2OC)cc1	1.5	-3	·	-2%	·
CCCCCn1c(N2CCC(C(N)=O)CC2)nc2c1c(=O)[nH]c(=O)n2C	3.2	-3	2	-1%	-44
CCO[C@H]1OC(C(=O)N2CCN(Cc3ccccc3)CC2)=C[C@@H](c2coc3ccccc3c2=O)[C@@H]1CCCO	2.8	-5	-7	4%	·
CCN(Cc1ccccc1)C(=O)CCc1nc(CN2CCN(C(=O)c3ccc([N+](=O)[O-])cc3)CC2)no1	-0.6	5	·	·	·
Cc1cc(C)c(N)c(C(=O)O)c1	-1.1	7	·	·	·
Cc1ccc(C(=O)c2ccccc2C(=O)O)c(O)c1	·	16	4	-4%	-7	Arbovirus inh repeat=2
COc1ccc(C2=NN(C(=O)CSc3nc4ccccc4s3)C(c3ccc(OC)cc3)C2)cc1 (stereo not given)	10	-10	-1	9%	-12
Cc1cc(C)c(C#N)c(SCC(=O)OC2CCCCC2)n1	·	0	1	-6%	-45
CSCCC(NS(=O)(=O)c1cccc(C(F)(F)F)c1)C(=O)N(C)CCOc1ccc(Cl)cc1 (stereo not given)	-3.5	1	·	·	·
C[C@]12CC[C@H]3C(CCC4(O)CC(O)CC[C@]34C=O)C1=CC[C@H]2c1ccc(=O)oc1 (stereo not given in full)	-0.9	1	·	·	·
NC(=O)c1nsc(C(=O)N(Cc2ccc(F)cc2)C(C(=O)NC2CCCC2)c2ccco2)c1N (stereo not given)	5.1	-9	·	·	·
Cc1ccc(S(=O)(=O)Nc2ccccc2C(=O)NCc2cccnc2)cc1	-3.2	4	2	-4%	·
Cc1ccc(/C=C2/Sc3ccc(C(=O)N4CCC5(CC4)OCCO5)cc3NC2=O)cc1	-0.7	2	·	·	·
CCOC(=O)CCc1nn(C)c(=O)c2ccccc12	-0.2	0	3	0%	-26
COc1ccc(NC(=S)N2CCN(S(=O)(=O)c3ccc(F)cc3)CC2)cc1	-1.2	0	·	·	·
O=C1c2ccccc2C(Nc2cccnc2)N1Cc1ccccc1 (stereo not given)	-9.3	-1	13	12%	-23
Cc1ccccc1NC(=O)NCCCN1CCN(C2CCCCC2)CC1	-0.1	-5	1	-11%	-14
CCCC(C)NC(=O)CSCc1ccc(OC)cc1 (stereo not given)	·	-2	1	-3%	·
CCn1c(SCC(=O)Nc2sc(C)c(C)c2C#N)nnc1C(C)C	-1.5	-7	-4	-4%	-46
CCCNS(=O)(=O)c1ccc(NC(=O)c2ccccn2)cc1	·	-4	3	7%	-7
O=C(CC1Sc2ccccc2NC1=O)c1ccc(Br)cc1 (stereo not given)	1.7	-4	2	1%	-24
COc1ccc2c(c1)C(SCC(=O)NCc1ccccc1)CC(C)(C)O2 (stereo not given)	-0.5	-4	-2	·	-27
CCOC(=O)c1ccc(NC(=O)Cn2c(-c3nonc3N)nc3ccccc32)cc1	2.0	7	5	5%	·
CC1=NN(c2nc(-c3ccc(C)cc3)cs2)C(=O)C1N=Nc1ccc2ccccc2c1 (stereo not given)	2.2	30	4	7%	-33
CC(Oc1cccc(F)c1)c1ccnc2nc(/N=C/N(C)C)nn12 (stereo not given)	1.3	1	6	-9%	·
COc1ccc(/C=C/C(=O)Nc2ccc(S(=O)(=O)Nc3cc(C)nc(C)n3)cc2)cc1OC	-0.3	4	·	·	·
COc1ccccc1-c1nc(C#N)c(N2CCC(Cc3ccccc3)CC2)o1	7.8	-6	7	-4%	-18
COc1cccc(OC)c1CC1SC(=O)NC1=O (stereo not given)	-1.5	2	-1	5%	·
CCOc1ccccc1CN1CCC(N2CCOCC2)CC1	-1.7	-3	·	·	·
COC(=O)CNC(=O)c1c(C)cc(=O)oc1C	-0.3	8	8	-9%	1
COC(=O)CC1SC(=O)NC1=Nc1ccc(OC)cc1 (stereo not given)	1.2	-6	-7	0%	3
COc1ccccc1CNC(=O)C1CCC(CNc2c(N3CCOCC3)c(=O)c2=O)CC1 (stereo not given)	0.6	-7	0	3%	-23	Arbovirus inh repeat=3
O=C1CS/C(=N/N=C\c2ccn[nH]2)N1	-3.1	?	·	11%	·
O=C(CN1CCN(c2ccccn2)CC1)Nc1cccc(Br)c1	-0.9	9	·	·	·
CC(C)C(=O)NC(=S)Nc1ccc(S(=O)(=O)Nc2nccs2)cc1	3.4	-3	4	1%	·
COc1ccc(CCN(C)C/C=C/c2ccccc2[N+](=O)[O-])cc1OC	0.4	-7	·	·	·
CC(C)[C@H](NC(=O)c1ccccc1F)C(=O)Nc1ccc(F)c(F)c1	-1.9	2	·	·	·
COC(=O)c1[nH]c2ccc(F)cc2c1NC(=O)CCN1CC(C)OC(C)C1 (stereo not given)	0.7	3	-6	2%	-18
CCOc1ccc(C(=O)NCC(=O)N2CCC(C)CC2)cc1OCC	-2.1	-8	-6	-7%	·

More records
SMILES	RecA intein inh	Mtb bLac sens	Arbovirus inh	Mtb H37Rv	YopH inh	others
O=C(Nc1ccc(Cl)c(Cl)c1)Nc1ccccc1NS(=O)(=O)c1cccs1	31*	-3	-31	3%	-15
COC(=O)[C@]1(Cc2ccccc2)N[C@H](c2ccc(-c3ccc(F)cc3)cc2)[C@@H]2C(=O)N(C)C(=O)[C@@H]21	5.8	2	·	·	·
N#Cc1ccccc1OCCOCCNC1CCCC1	·	0	-3	-3%	-7
CCN(CC)c1ccc(C(=O)O)cc1	0.1	3	8	8%	-6
Clc1ccccc1N=C1NN=C(c2cccs2)CS1	12	-6	-14	1%	·
COc1ccc(CN2CCC(CO)(CCOc3ccccc3)CC2)cc1C	2.2	-11	-12	7%	·
CCN1CCN(CC(O)COc2ccc3c(c2)CCC3)CC1 (stereo not given)	-3.1	1	-6	2%	-33
CCC(CC)c1nnc(NC(=O)CCNC(=O)c2ccccc2Cl)s1	0.7	4	-1	7%	·
CC(C)(C)C1CCC(=NNC(=O)C(=O)NCc2ccco2)CC1 (stereo not given)	-3.1	37	0	79%	·
O=c1ccn(CCOc2ccc(Cl)cc2)c(=O)[nH]1	-0.8	2	5	4%	-14

Structures shown so far with a COOH group, in the order listed:
SMILES	RecA intein inh	Mtb bLac sens	Arbovirus inh	Mtb H37Rv	YopH inh	others
Cc1nc2ccc(Cl)cc2c(-c2ccccc2F)c1CC(=O)O	0.7	9	2	-5%	-13
O=C(O)c1nn(Cc2nc3ccccc3o2)c(=O)c2ccccc12	2.3	0	·	·	·
Cc1cc(C)c(N)c(C(=O)O)c1	-1.1	7	·	·	·
Cc1ccc(C(=O)c2ccccc2C(=O)O)c(O)c1	·	16	4	-4%	-7	Arbovirus inh repeat=2
CCN(CC)c1ccc(C(=O)O)cc1	0.1	3	8	8%	-6

Back to the main list with the two entries that preceded the break.
SMILES	RecA intein inh	Mtb bLac sens	Arbovirus inh	Mtb H37Rv	YopH inh	others
CC(C)(C)C1CCC(=NNC(=O)C(=O)NCc2ccco2)CC1 (stereo not given)	-3.1	37	0	79%	·
O=c1ccn(CCOc2ccc(Cl)cc2)c(=O)[nH]1	-0.8	2	5	4%	-14
COc1ccccc1CNC(=O)c1oc2ccc(S(=O)(=O)N3CCCC3)cc2c1C	0.9	5	-7	7%	-51
CC1(c2nnc(-c3ccncc3)o2)CC(c2ccccc2)=NO1 (stereo not given)	-2.9	98	·	72%	·
CC(OC(=O)Nc1cccc(Cl)c1)C(=O)O (stereo not given)	1.9	-4	·	-14%	·
CCCC(=O)N(c1ccc2oc(C)c(C(C)=O)c2c1)S(=O)(=O)c1ccc(C)c([N+](=O)[O-])c1	-0.1	1	-1	8%	-19
O=C(NCC1CCCCC1)c1cccnc1Cl	-0.3	4	·	·	·
CC1=C(C(=O)Nc2ccc(C)cc2C)C(c2ccc(C)o2)NC(=S)N1 (stereo not given)	-0.3	-3	5	-1%	-10
CCOP(=O)(OCC)/C(C#N)=C/c1cc(OC)ccc1OC	-1.2	1	·	0%	·
CCCC(=O)Nc1ccc2nn(-c3ccc(OC)cc3)nc2c1	5.1	18	·	·	·
O=C(CSc1ccccc1)Nc1ccc2c(c1)C(=O)NC2=O	-3.4	7	·	·	·
Cn1ccnc1SCC(=O)c1ccc(O)cc1	0.6	-11	·	-5%	·
CC(Sc1nc(NCc2ccccc2)nc(N(C)C)n1)C(=O)Nc1ccccc1 (stereo not given)	3.5	12	3	9%	-23
COc1ccc(-c2nc(-c3ccc(Br)cc3)no2)c(OC)c1	3.3	-5	20	-2%	-16
Cn1c(-c2ccccc2)cnc1NCc1ccc(-c2ccccc2)cc1	16	100	·	·	·
CCOC(=O)N1CCN(C(=O)c2nn(-c3cc(OC)cc(OC)c3)c(=O)c3ccccc23)CC1	-1.0	-1	2	·	-30
COc1cccc(-n2c(SCC(N)=O)nnc2-c2c[nH]c3ccccc23)c1	0.1	-6	3	0%	·
CCCC(=O)OCCNc1cc(SCCC(=O)OC)c2nonc2c1[N+](=O)[O-]	39*	99	-32	?	-11
Cc1cc(NC(=O)Cc2ccccc2)c2ccccc2n1	-2.3	1	0	3%	·
O=C(C1=C[C@H](c2ccc3c(c2)OCO3)C[C@H](OCCCCO)O1)N1CCOCC1	-3.6	-4	-1	-7%	·
Cc1ccccc1NC(=S)N(C)CCc1ccccn1	-1.6	-2	-4	-1%	-23
CCOC(=O)c1nnn2c1nc(Nc1cccc(C(F)(F)F)c1)c1ccccc12	-1.0	-4	·	-9%	·
Nc1cnc(Br)cc1Br	2.0	-2	-1	-7%	-26
Cc1cc(C(=O)CCC(=O)NCc2ccccc2F)c(C)s1	-3.0	-9	·	·	·
COC(=O)CSc1nc(N)c(NC(=O)c2ccc(OC)c(OC)c2)c(=O)[nH]1	4.6	-1	-3	1%	-8
Cc1cc(S(=O)(=O)N2CCN(Cc3ccc4c(c3)OCO4)CC2)cc(C)c1N1CCCC1=O	0.0	2	19	-2%	-25	Arbovirus inh repeat=-4
